RecA intein inh: inhibitors of M. tuberculosis RecA intein splicing; inhibition, %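 (about 9 µM by stock and volumes)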; 290,000 tested, 0.75% active; P9WHJ3; AID 2221; cell-free RecA intein splicing, fluorescence; in the data active = inhibition above about 30%; inconclusive = no clear call, values can overlap the other calls;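 also: 0% = vehicle wells and 100% = reference inhibitor control wells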
Target sequence (P9WHJ3 whole entry, looked up): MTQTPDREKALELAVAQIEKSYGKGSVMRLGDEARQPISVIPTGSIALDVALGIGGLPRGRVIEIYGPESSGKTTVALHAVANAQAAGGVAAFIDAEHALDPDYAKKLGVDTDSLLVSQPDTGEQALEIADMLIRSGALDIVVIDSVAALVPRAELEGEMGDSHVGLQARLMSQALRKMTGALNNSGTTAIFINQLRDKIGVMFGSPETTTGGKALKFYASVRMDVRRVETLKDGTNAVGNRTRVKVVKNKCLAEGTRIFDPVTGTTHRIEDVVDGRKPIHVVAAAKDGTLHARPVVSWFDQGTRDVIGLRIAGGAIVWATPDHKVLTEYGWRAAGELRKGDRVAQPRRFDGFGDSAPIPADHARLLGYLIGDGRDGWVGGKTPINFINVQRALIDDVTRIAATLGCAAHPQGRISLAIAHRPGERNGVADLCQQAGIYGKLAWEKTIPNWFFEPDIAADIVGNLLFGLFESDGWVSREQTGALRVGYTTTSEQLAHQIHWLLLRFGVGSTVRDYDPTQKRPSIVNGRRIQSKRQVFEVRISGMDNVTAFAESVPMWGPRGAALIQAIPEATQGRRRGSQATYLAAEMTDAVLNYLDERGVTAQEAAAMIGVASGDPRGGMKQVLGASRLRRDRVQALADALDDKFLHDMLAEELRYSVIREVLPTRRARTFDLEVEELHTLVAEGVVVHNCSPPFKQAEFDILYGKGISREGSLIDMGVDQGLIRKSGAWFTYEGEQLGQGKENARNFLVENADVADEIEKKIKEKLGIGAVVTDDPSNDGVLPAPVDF
Mtb growth: M. tuberculosis H37Rv growth inhibitors, H37Rv strain (AID 1626); 220,000 tested, 0.95% active; M. tuberculosis H37Rv growth inhibition; higher % means a stronger effect; inhibition, % at 10 µM, or IC50 in µM where a hit was titrated;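 active = confirmed in a dose series; inconclusive = inhibition above 80% but not taken into the dose series; inactive = below 80% or under 30% at every dose of the series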;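 also: bacteria incubated seven days before Alamar blue readout; 0% = bacteria only wells and 100% = bacteria with antibiotic wells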
Mtb betalactam: beta-lactam sensitization of Mtb H37Rv. 330,000 tested, 0.27% active. inhibition, % at 25 µM. M. tuberculosis H37Rv growth with meropenem, percent inhibition; hits of this screen are not shown here;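 active = about 74% or more and at least 40 points above the plate without the antibiotic, then above 30% in a dose series; inconclusive = first-round hits that could not be retested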;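 also: growth measured after seven days incubation then overnight dye step; 0% = bacteria only wells and 100% = bacteria with antibiotic; twin plates without the antibiotic show which effects depend on it; some results filed as inactive read as strong as hits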
Arbovirus inh: blocks arbovirus infection; arbovirus infection cell-based antiviral screen; inhibition, % at 10 µM; 200,000 tested, 0.37% active; AID 1251;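 active = inhibition from about 30%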;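 also: bluetongue infection of BSR cells; cell survival read as ATP light after 72 h; 0% = infected wells without compound and 100% = uninfected wells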
YopH inh: blocks Yersinia enterocolitica YopH tyrosine phosphatase; 140,000 tested, 0.16% active; fluorescence Ex485/Em525; inhibition, %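 (about 10 µM by stock and volumes)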;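 active = inhibition of 50% or more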;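 also: controls were vehicle for no effect and minimum signal wells for full effect; inactives centre near -20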
Arbovirus inh repeat: also measured in Arbovirus inh; calls as there; inhibition, %; measured here: 10K subset replicate screen; many hits read low in the repeat;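 first of two repeat runs on a subset; 0% = infected and 100% = uninfected wells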
Active calls of the source: *; ? = inconclusive; · = not tested or not shown; & = joins results of further samples. The list is partial; rates above refer to the full screens.

The opening 3 records, to show the layout:
SMILES	RecA intein inh	Mtb growth	Mtb betalactam	Arbovirus inh	YopH inh	others
Cc1ccc2cc(CN(Cc3ccco3)C(=O)c3cccs3)c(=O)[nH]c2c1	-0.9	-7%	-2	-17	-13
COC(=O)c1c(C(=O)OC)c(-c2ccccc2)n2c1CCC2	-2.5	3%	-8	-9	-45
O=C(CSc1ccc2nnc(-c3ccccc3)n2n1)N1CCCCC1	-0.7	·	-7	·	·

The list itself, from the start:
SMILES	RecA intein inh	Mtb growth	Mtb betalactam	Arbovirus inh	YopH inh	others
Cc1ccc2cc(CN(Cc3ccco3)C(=O)c3cccs3)c(=O)[nH]c2c1	-0.9	-7%	-2	-17	-13
COC(=O)c1c(C(=O)OC)c(-c2ccccc2)n2c1CCC2	-2.5	3%	-8	-9	-45
O=C(CSc1ccc2nnc(-c3ccccc3)n2n1)N1CCCCC1	-0.7	·	-7	·	·
Cn1c(O)c(/C=C2\C=Nc3ccccc32)c(=O)n(C)c1=O	1.7	·	2	·	·
c1ccc(C[n+]2ccc3ccccc3c2)cc1	-0.6	·	0	·	·
COc1cc(CN(C(=O)c2ccco2)C2CCS(=O)(=O)C2)cc(OC)c1OC (centres undefined)	1.4	·	-10	·	·
CCOC(=O)c1sc(Nc2nc3c(OC)cccc3s2)cc1C	1.6	18%	·	-36	-8
O=C(CSCc1ccc(F)cc1)NCc1cccs1	0.1	2%	-10	0	·
COc1ccc(NC(=O)c2ccc3ccccc3c2)cc1	0.5	·	5	·	·
Cc1cc(NC(=O)CSc2nnnn2-c2ccccc2)no1	-0.2	-5%	-3	-4	·
Cc1ccc(C2=NC(C)(C)NC2=O)cc1	·	-12%	0	2	-35
CNc1nnc(-c2ccco2)s1	3.4	-16%	-4	·	·
Cc1cc(C)nc(NC(=O)NS(=O)(=O)Nc2ccc(Br)cn2)n1	·	-3%	-7	-2	-30
COc1ccc(C(=O)/C=C2/c3ccccc3CC(C)(C)N2C)cc1OC	2.0	6%	-3	0	-40
Fc1c(F)c(F)c(NC2=NCCCCC2)c(F)c1F	2.5	·	-13	·	·
O=C(NCCc1ccccc1)C1CCN(S(=O)(=O)c2ccc(-n3cnnn3)cc2)CC1	-3.1	-5%	-21	-5	-4
O=C(OCCc1ccccc1)c1cc(O)c(O)c(O)c1	-2.3	·	4	·	·
CC(=O)c1cccc(NC(=O)C(C)OC(=O)c2cc(=O)[nH]c3ccccc23)c1 (centres undefined)	3.6	·	-4	·	·
Cc1noc(NS(=O)(=O)c2ccc(NC(=O)/C=C/c3ccc(Br)cc3)cc2)c1C	0.4	·	8	·	·
N=C1c2c(cc(=O)n3c2[nH]c2ccccc23)CN1CCN1CCOCC1	-27	0%	-7	0	·
CCOC(=O)N1CCN(C(=S)NC(=O)c2nn(C)cc2Br)CC1	1.9	-3%	7	8	·
COc1ccc(C/C(C)=N/NC(=O)c2ccc(Cl)cc2)cc1	4.1	-6%	59	19	·
Cc1ccc(-c2nnc(N3CCN(CCO)CC3)c3ccccc23)cc1	1.3	·	7	·	·
CCCN1CCC(NC(=O)Cc2cccc(C)c2)CC1	0.8	·	-4	·	·
Cc1cc(C(=O)c2ccc(C(C)(C)C)cc2)c(NC(=O)CCl)s1	67*	20µM*	99	-41	-16

Additional structures
SMILES	RecA intein inh	Mtb growth	Mtb betalactam	Arbovirus inh	YopH inh	others
S=C1NCCOCCOCCOCCNC(=S)N2CCOCCOCCN1CCOCCOCC2	-8.3	-1%	1	6	·
CCn1c(COc2ccc(Cl)c(C)c2)nnc1SCC(=O)N1CCCC1	0.3	-9%	-1	-1	-14
O=C(NC1CCCCC1)C1CCCN(c2nnnn2-c2ccccc2)C1 (centres undefined)	3.5	-7%	-1	-2	-23
CC(C)(C)NC(=O)[C@@H]1C[C@@H]2CCCC[C@@H]2CN1C[C@@H](O)[C@H](Cc1ccccc1)NC(=O)[C@H](CC(N)=O)NC(=O)c1ccc2ccccc2n1	11&-3.6	22%	12&5	·	·
Oc1c(Br)cc(Br)cc1/C=N/N1CCN(Cc2ccccc2)CC1	·	-1%	3	-4	-19
CN(C)c1ccc(C(=O)/C=C/c2cccnc2)cc1	2.8	·	-5	·	·
c1ccc(-c2noc(C34CC5CC(CC(C5)C3)C4)n2)nc1	-2.3	11%	46	7	-16
CCOC(=O)NC(NC(=S)Nc1ccc(OCC)cc1)C(Cl)(Cl)Cl (centres undefined)	-3.1	3%	3	-4	-2
Cc1ccc(C)c(N(CC(N)=O)S(C)(=O)=O)c1	-0.1	10%	-5	4	-27
Cc1ccc(C(=O)Oc2ccccc2N2C(=O)C3CCC(C)CC3C2=O)cc1 (centres undefined)	2.6	-6%	5	-6	-11
CCC(C)OC1OC(CO)C(O)C(O)C1NC(C)=O (centres undefined)	-2.4	-8%	-1	6	-19
Cc1cccc2c(=O)oc(-c3ccccc3Cl)nc12	0.3	·	4	·	·
O=C1CC2(CCCC2)C(=O)N1c1ccc(S(=O)(=O)NCC2CC2)cc1Cl	-6.6	-7%	-1	·	·
Cc1nnc(SCC(=O)Nc2c(Cl)cccc2Cl)[nH]c1=O	-0.4	1%	-1	9	-27	Arbovirus inh repeat=3
O=C(COC(=O)c1ccc(NS(=O)(=O)c2cccs2)cc1O)NCc1ccccc1	1.1	18%	3	-5	·
Cc1cc2ncn(C3CC(=O)N(C)C3=O)c2cc1C (centres undefined)	0.5	2%	-1	4	-10
CC1(C)CC(=O)c2cnc(NCC3CCCO3)nc2C1 (centres undefined)	-2.8	-1%	-13	16	-44
COc1ccc(S(=O)(=O)N2CCN(Cc3cccc(OC)c3OC)CC2)cc1	4.9	·	3	·	·
O=c1[nH]c2ccc(S(=O)(=O)Nc3ccccc3O)cc2[nH]1	-1.4	·	1	·	·
Cc1c2n(c3ccccc13)CC/C2=N\O	0.0	-1%	4	·	·
COc1ccc(Cl)cc1NS(=O)(=O)c1cc(Cl)ccc1OC	-1.6	-13%	-1	1	-16
CC1CCC/C(=N\NC(=O)COc2ccc(Cl)cc2Cl)C1 (centres undefined)	-0.7	·	4	8	-15
O=C1NC(=O)C(=C/C=C/c2coc3ccc(Br)cc3c2=O)C(=O)N1	-0.6	-6%	-11	·	·
COc1ccc(S(=O)(=O)N(Cc2ccc(OC)c(OC)c2)Cc2ccco2)cc1	0.7	0%	5	-10	0
N#C/C(=C/c1ccncc1)c1nc2ccccc2s1	74*	5%	-3	10	·

(further entries)
SMILES	RecA intein inh	Mtb growth	Mtb betalactam	Arbovirus inh	YopH inh	others
O=C(NC1CCCCC1)C(c1cccnc1)N(C(=O)c1csnn1)c1ccc(F)cc1 (centres undefined)	-1.9	·	-4	·	·
CCCC(=O)c1c(NC(C)C)cc(C)oc1=O	-1.7	3%	-14	1	-46
COc1ccc(OC)c(N2C(=O)NC(=O)/C(=C\c3ccc([N+](=O)[O-])s3)C2=O)c1	10	5%	100	10	·
Fc1ccc(Cn2nnnc2C(c2ccc(Cl)cc2)N2CC=C(c3ccc(F)cc3)CC2)cc1 (centres undefined)	4.5	10%	10	-5	-9
CCCCCCc1c(O)nc(SCC(=O)O)[nH]c1=O	0.2	-4%	2	13	2	Arbovirus inh repeat=7
Cc1ccc(S(=O)(=O)NCc2ccccn2)cc1C	-1.1	·	-7	·	·
Cc1ccc(C(=O)N2CCN(c3ccccc3)CC2)cc1S(=O)(=O)N1CCOCC1	3.3	·	?	·	·
Cc1ccc(N=N/C(=C\O)C(=O)c2ccncc2)cc1	1.6	11%	21	10	-23
CS(=O)(=O)c1ccc(Cl)c(NC(=O)CCCSc2ccccc2)c1	3.2	·	-2	·	·
CCNc1nc(OC)nc(SCC(N)=O)n1	-2.2	-2%	-6	-3	-43
COc1ccc(C2=NN(c3ccccc3)C(c3ccc(OC)c(OC)c3)C2)cc1 (centres undefined)	2.5	·	8	·	·
COc1ccc(CN2CCN(Cc3ccc4cc(F)ccc4n3)CC2CCO)c(C)c1C (centres undefined)	0.3	·	50	·	·
O=C(O)[C@@H]1CCCN1C(=O)c1ccccc1N1C(=O)[C@@H]2Cc3c([nH]c4ccccc34)C(c3cccc(Cl)c3)N2C1=O (some centres undefined)	-1.4	·	-5	·	·
Cc1cc(C)c(/C=N/NC(=O)c2nnn(-c3nonc3N)c2CN2CCC(C)CC2)c(C)c1	-1.6	·	3	·	·
CCCc1cc2c(=O)c(-c3ccccn3)c(C)oc2cc1O	-2.6	-4%	-8	5	-20
CCOC(=O)c1cnc2scnn2c1=O	0.5	6%	·	-3	-33
CCOC(=O)N1CCN(C(=O)CNCc2cccs2)CC1	-3.9	2%	-16	4	-19
Cn1c(=O)c2nc(-c3ccccc3)oc2c2ccccc21	·	1%	52	-13	-60
O=c1cc(N2CCN(c3ccc(F)cc3)CC2)[nH]c(=O)n1C1CCCCC1	0.4	-5%	-15	-19	0
CCOC(=O)Cc1cc(=O)n(-c2nc3ccccc3s2)[nH]1	-1.4	-2%	-5	-7	-39
c1ccc(CN2c3ccccc3-c3nc4ccccc4n3C2c2ccccn2)cc1 (centres undefined)	8.9	-4%	2	-14	-95
Cc1ccc2c(c1)N(C(=O)CCC(=O)N1CCN(c3ccccc3)CC1)CCO2	1.1	·	-11	·	·
CC(=O)Nc1ccc(NC(=O)C2CCN(c3ccc(C(F)(F)F)cn3)CC2)cc1	5.9	1%	1	-13	·
OC1(c2ccc(Cl)cc2)CCN(Cc2cn[nH]c2-c2ccccc2)CC1	8.9	1%	1	·	·
COC(=O)c1cc(Br)c(=O)n(CCc2ccc(O)cc2)c1	-0.1	7%	-7	-1	-9

The results go on:
SMILES	RecA intein inh	Mtb growth	Mtb betalactam	Arbovirus inh	YopH inh	others
C=CCn1c(-c2ccco2)n[nH]c1=S	1.7	-7%	-10	4	-5	Arbovirus inh repeat=-2
CCc1ccc(OCC(=O)N/N=C\c2ccco2)c([N+](=O)[O-])c1	1.4	6%	-6	2	-32
Cc1ccc(CN2CCCC(C(=O)c3ccc4c(c3)OCO4)C2)cc1C (centres undefined)	1.1	-1%	7	·	·
O=C(Nn1cnnc1)c1ccccc1CCc1ccccc1	-2.4	-3%	-6	2	14
O=C(c1ccc(Cl)cc1)N1CCN(c2ccc(F)cc2)CC1	2.7	-5%	2	-4	0
NS(=O)(=O)c1ccc(CCNc2ncnc3sccc23)cc1	-10	2%	-2	18	-2
CC1CCCC(C)N1c1nnc(NC(=O)Cn2c(=O)oc3ccccc32)s1 (centres undefined)	-0.5	4%	2	5	-33	Arbovirus inh repeat=15
OC(CN1CCCCC1)Cn1c2ccccc2c2ccccc21 (centres undefined)	-0.4	·	3	·	·
CCc1nc(OCCN(CC)CC)c2oc3ccccc3c2n1	-4.5	1%	-6	2	0
Cc1ccc(NC(=O)C2CCCN2C(=O)NC2CCCCC2)cc1F (centres undefined)	-1.9	·	-6	·	·
CC1(C)CC[C@]2(C(=O)O)[C@H](O)C[C@]3(C)C(=CCC4[C@@]5(C)C[C@H](O)[C@H](O)[C@@](C)(CO)C5CC[C@]43C)[C@@H]2C1 (some centres undefined)	0.5	·	4	·	·
COc1ccc(-c2csc(NC(CO)c3nc4ccccc4n3CCCO)n2)cc1 (centres undefined)	6.6	1%	5	·	·
NNc1ccc2nnc(C(F)(F)C(F)(F)C(F)(F)F)n2n1	-4.1	7%	1	5	·
O=C(COC(=O)c1cc(Br)ccc1O)NNC(=O)c1ccc(Cl)cc1	-3.1	·	-7	·	·
O=C(CNC(=O)c1cccs1)OCC(=O)c1cccs1	2.1	-8%	8	-2	-8
CCOC(=O)C1CCCN(C(=O)c2cc3cc(F)ccc3[nH]2)C1 (centres undefined)	-0.4	·	0	·	·
Cc1ccc(CN(C(=O)c2ccc(Cl)c([N+](=O)[O-])c2)C2CCS(=O)(=O)C2)o1 (centres undefined)	-1.6	·	8	·	·
COc1cc(N)c(C(=O)c2nccc3cc(OC)c(OC)cc23)cc1OC	18	·	-6	·	·
Cc1ccc(C(=O)COC(=O)c2cc(Cl)nc3ccccc23)cc1C	-0.4	2%	61	9	-30
O=C1Cn2c(nc3ccccc32)N1c1cccc(C(F)(F)F)c1	-3.0	1%	-3	4	-4
CCSc1ccc(-c2nn(-c3ccccc3)cc2/C=C(/C#N)C(=O)NC)cc1	·	-2%	4	-18	-25
CCN1C(=O)/C(=C/c2nc3ccccc3c(=O)[nH]2)c2ccccc21	·	-8%	5	1	-19
O=C(Cc1cccs1)NCCc1csc(-c2ccccc2)n1	4.6	7%	-2	·	·

Ordered by molar mass (lowest first): part of the list above
SMILES	RecA intein inh	Mtb growth	Mtb betalactam	Arbovirus inh	YopH inh	others
Cc1ccc(N=N/C(=C\O)C(=O)c2ccncc2)cc1	1.6	11%	21	10	-23
COc1ccc(C/C(C)=N/NC(=O)c2ccc(Cl)cc2)cc1	4.1	-6%	59	19	·
O=C(c1ccc(Cl)cc1)N1CCN(c2ccc(F)cc2)CC1	2.7	-5%	2	-4	0
Cc1ccc2c(c1)N(C(=O)CCC(=O)N1CCN(c3ccccc3)CC1)CCO2	1.1	·	-11	·	·

Bioassay records (PubChem)
